Screening results (PubChem BioAssay)
Menin MLL FP FL – menin-MLL binding inhibition, fluorescein peptide | FP activity change, % at 61.4 µM | 290,000 tested, under 10 active | Fluorescence polarization, fluorescein-MLL peptide displacement from menin; inconclusive = falling polarisation curve, or a change in total fluorescence; inactive = total fluorescence flat and polarisation flat or rising; no compound was filed as active; the % refers to the polarisation; negative = inhibition;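 further: % of control where 0% means no effect; inhibitors lower the polarisation; unlabelled MLL peptide was the positive control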
TRPML1 ag – human mucolipin-1 channel agonism. TRPML1-expressing cells, Ca2+ dye fluorescence, FDSS; host cell line not named in the record; reference of the full effect not given here. activation, % (no concentration beside the values). 410,000 compounds, 0.12% hits; in the data active = activation above about 50%; inconclusive = about 30% to 50%; inactive = below about 30%; further: 0% is about no effect; the text of the record puts the active cut at 80%
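Tetracycline-induced TRPML1-DL cells are seeded and incubated overnight before loading with a no-wash Ca2+ dye and quencher. Agonist activity is taken from the 110 s fluorescence read following compound pin-transfer on an FDSS, before EC80 54-4 challenge.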
Sfp PPTase inh – inhibitors of Bacillus subtilis Sfp phosphopantetheinyl transferase; Biochemical Sfp PPTase activity, qHTS; Potency, µM, without a hit: max response, negative = inhibition, most hits filed as inhibitors; 310,000 compounds, 3.5% hits; Q9F4F7; AID 1490; active means well fitted inhibition curve with a large enough effect; inconclusive means small, poorly fitted or top-dose-only effect, or another doubt; inactive means no such curve, though single readings can be large or run the other way;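 further: the enzyme is Sfp with the accession as filed and its product quenches rhodamine fluorescence; potency means the concentration at half of the fitted maximal effect; 0% = enzyme reaction without inhibitor and -100% = no enzyme wells; top concentration of the series not given in the record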
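Compounds were incubated with enzyme (final 15 nM) for 15 min at room temperature before substrate addition started the reaction. Fluorescence at 525 nm excitation, 598 nm emission was recorded immediately and after 30 minutes.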
TRPV1 PAM – enhances activation of the human vanilloid receptor TRPV1. Q8NER1. TRPV1-expressing cells, Fluo-8 calcium influx, capsaicin EC20 potentiation; host cell line not named in the record; control for the full effect not named in the record. potentiation, % at 8.33 µM. 320,000 compounds, 0.02% hits. AID 540277; active means potentiation above 80%; inconclusive means 30% to 80%; inactive means below 30%; further: 0% is about no effect
Target sequence (Q8NER1 whole entry, looked up): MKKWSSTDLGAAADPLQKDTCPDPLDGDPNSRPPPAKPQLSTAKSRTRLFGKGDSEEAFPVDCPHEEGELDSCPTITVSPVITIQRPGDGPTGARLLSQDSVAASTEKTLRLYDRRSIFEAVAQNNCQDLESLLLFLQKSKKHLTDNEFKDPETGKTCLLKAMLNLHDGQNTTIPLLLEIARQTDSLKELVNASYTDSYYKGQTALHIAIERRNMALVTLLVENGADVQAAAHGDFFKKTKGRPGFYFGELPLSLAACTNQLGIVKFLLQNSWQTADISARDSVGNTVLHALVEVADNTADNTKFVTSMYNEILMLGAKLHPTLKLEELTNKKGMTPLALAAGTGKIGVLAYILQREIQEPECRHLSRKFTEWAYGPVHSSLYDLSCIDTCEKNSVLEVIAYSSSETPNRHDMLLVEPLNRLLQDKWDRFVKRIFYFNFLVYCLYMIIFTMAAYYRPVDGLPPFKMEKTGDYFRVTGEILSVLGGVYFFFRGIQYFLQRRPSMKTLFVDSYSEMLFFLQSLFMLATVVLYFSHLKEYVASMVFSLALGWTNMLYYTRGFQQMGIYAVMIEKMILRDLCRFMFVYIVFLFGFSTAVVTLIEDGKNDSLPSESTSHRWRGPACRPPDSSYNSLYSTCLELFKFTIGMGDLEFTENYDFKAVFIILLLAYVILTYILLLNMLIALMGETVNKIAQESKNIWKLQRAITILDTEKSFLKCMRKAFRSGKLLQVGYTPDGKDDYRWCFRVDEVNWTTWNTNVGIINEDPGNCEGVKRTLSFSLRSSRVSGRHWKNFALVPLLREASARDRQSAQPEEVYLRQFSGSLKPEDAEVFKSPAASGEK
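TRPV1-expressing cells were cultured overnight at 35.5C and loaded with Fluo-8 calcium dye for 40 to 90 min at room temperature. After a 10 s baseline, compound was added and calcium influx was read kinetically for 3 min (ex 480/em 520 nm).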
TRPML1 inh – blocks the human TRPML1 channel; 390,000 compounds, 0.02% hits; AID 624415; TRPML1-inducible cells, Ca2+ dye fluorescence, FDSS; hits give low values; inhibition of EC80 agonist-evoked calcium signal; activity change, negative = inhibition, % (test concentration not listed); in the data active means activity change below about -50%; inconclusive means about -30% to -50%; inactive means above about -30%;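 further: stimulus is agonist 54-4 at its EC80 concentration; on the % scale 0 is the no-effect control and ±100 the full control effect; compound concentration not given in the record; the text of the record puts the active cut at -80%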
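Calcium fluorescence in TRPML1-DL cells induced overnight with Tet: a 110 s read after compound pin addition, then a 110 s antagonist read after challenge with 54-4 at 4 uM final (EC80).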
PINK1 modulator – PINK1 expression modulation | PINK1 immunofluorescence, high-content cytometry, 24 h | 410,000 compounds, 0.2% hits | Potency, µM (doses to about 76.6 µM), for the others: at the highest dose activation (PINK1 increase), most hits filed as activators; active = well fitted activation curve with a large enough effect; inconclusive = small, poorly fitted or top-dose-only effect; inactive = flat fitted curve, though single readings scatter; cell line not stated here;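 further: potency means the concentration at half of the fitted maximal effect; % of control where 0% means no effect; nearly all actives have a fitted effect of over 65% in size; a mitochondrial uncoupler was the plate control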
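Fluorescence from anti-PINK1 antibody, together with nuclear and cell stains, was scanned on a laser-scanning cytometer. Before staining, stable-line cells were incubated 24 hours with compounds at 5 concentrations; primary antibody 12 h at 10 degrees C.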
ClpP mod – qHTS Assay for Activators of ClpP | purified B. subtilis ClpP, FRET peptide cleavage, 20 min | ATP-dependent Clp protease proteolytic subunit (Bacillus subtilis (strain 168)), P80244 | AID 651965, 2013 | Potency, µM (titrated, usually from 57.5 µM), without a hit: at the highest dose activity change, negative = active | 340,000 compounds, 1.9% hits; active = well fitted falling curve with a large enough effect; inconclusive = small, poorly fitted or top-dose-only effect; inactive = no such curve, though single readings can be large or run the other way; further: potency means the concentration at half of the fitted maximal effect; the source files actives as falling curves though it sought activators and does not explain the sign; nearly all actives have a fitted effect of over 65% in size; many hits overshoot -100%
Target sequence (P80244 whole entry, looked up): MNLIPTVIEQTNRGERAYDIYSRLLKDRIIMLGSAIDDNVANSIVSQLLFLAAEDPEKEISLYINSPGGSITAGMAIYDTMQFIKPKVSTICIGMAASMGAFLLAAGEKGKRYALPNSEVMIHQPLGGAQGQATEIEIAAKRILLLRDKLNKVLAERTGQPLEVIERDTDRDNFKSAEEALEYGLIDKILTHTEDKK
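Purified B. subtilis ClpP, 10 microg/mL final in Tris/HCl pH8 with KCl, BSA, glycerol and Tween-20, cleaved an Abz/nitrotyrosine-quenched decapeptide. Fluorescence (ex 320, em 430) was read at 0 and 20 min at room temperature. Delta was normalized to 5.8 microM ADEP and DMSO/no-enzyme controls.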
Active calls of the source: *; ? = inconclusive; / = no result given; & = joins results of further samples; [ ] = another dose, or the depositor's remark.

SMILES	Menin MLL FP FL	TRPML1 ag	Sfp PPTase inh	TRPV1 PAM	TRPML1 inh	PINK1 modulator	ClpP mod
Cc1nn(CC(=O)NCCCN2CCCCC2)c(=O)c2cc(-c3ccccc3)nn12	1.8	0.1	19%	8	-9	2.8%	2.1%
CN(C)c1ccc(/C=C(\C#N)C(=O)c2ccccc2)cc1	?	72*	-5%	22	?	2.3%	1.0%
COc1cccc(NC2=CC(c3ccc(C(C)C)cc3)N(c3cccc(OC)c3)C2=O)c1 (configuration not stated)	/	0.8	/	/	-2	0.6%	?
O=C(COc1ccccc1F)Nc1ccc2nc(SCC(=O)N3CCc4ccccc43)sc2c1	/	0.9	/	/	15	-1.9%	-1.1%
COc1ccc2cc(C(=O)C3CCCN(C(=O)CCc4cnn(C)c4)C3)ccc2c1 (configuration not stated)	-2.9	-0.3	-2%	-12	50	-2.3%	/
O=C(CNC1CCCCCC1)Nc1ccccc1N1CCOCC1	-3.6	-0.4	-28%	-7	-8	-0.7%	1.1%
O=C(O)c1cc(/C=N\O)ccc1OCc1ccccc1	-2.9	-0.6	20%	-3	9	-0.2%	-6.4%
CCSc1nc(-c2ccc(Cl)cc2)nc2c1Cc1c(CO)cnc(C)c1O2	/	1.2	/	/	-12	2.4%	-1.7%
O=C(Nc1ccc(OCc2ccccc2)cc1)c1cccs1	1.4	/	12%	28	/	4.0%	1.3%
COc1ccc(C2OC3=C(Nc4cc(C)c(C)cc4N3)C2=O)cc1 (configuration not stated)	-6.1	-0.5	-6%	-10	25	8.5%	0.9%
Cn1c(NCCO)nc2c(c1=O)C1(CCCCC1)Cc1ccccc1-2	-0.3	-1.1	-4%	/	1	2.1%	3.6%
O=C(COc1ccc(Br)cc1)NNC(=O)c1ccc(-n2cncn2)c([N+](=O)[O-])c1	/	-1.5	/	8	6	1.8%	0.1%
COc1ccc(/C=C/C(=O)NCC(=O)N/N=C/c2ccc(OC)cc2)cc1	-0.4	2.3	14%	-6	-3	12%	/
Clc1ccc(Cn2ncc3c(N4CCCCC4)ncnc32)cc1	0.1	0.2	-2%	7	-4	8.3%	-5.2%
COc1ccc(OC)c(C2C(C(C)=O)=C(O)C(=O)N2c2ccc(O)cc2)c1 (configuration not stated)	-2.9	2.4	-5%	17	3	0.3%	-0.3%
CCOC(=O)NC(=O)CSc1nnnn1-c1ccc(Cl)cc1	0.8	0.4	10%	-3	-10	-6.2%[38.3 µM]	-0.9%
Cc1c(C(=O)N(C)C2CC(C)(C)NC(C)(C)C2)oc2c(F)cccc12	-0.9	-0.1	0%	13	5	2.9%	-0.9%
COc1cc(CC(=O)OCC(=O)NC(C)c2ccccc2)cc(OC)c1OC (configuration not stated)	/	2.0	/	/	8	-0.2%	-2.4%
CC(C)Nc1nc(NC(N)=S)nc(NC(C)C)n1	1.3	-0.6	-3%	3	8	3.2%	-2.6%
Cc1ccc(NC(=O)CN2C(=O)C3(SCC(=O)N3c3ccc(F)c(F)c3)c3ccccc32)c(C)c1 (configuration not stated)	/	1.2	/	/	-4	-3.4%	0.1%
CCOc1ccc(-c2nnc(SCC(=O)NC3CCCCC3)nc2-c2ccc(OCC)cc2)cc1	/	-0.3	/	/	35	0.9%	-0.6%
CC(C)N(C(=O)CN(C#N)c1nc(N(C)C)nc(N(C)C)n1)c1ccccc1	0.7	-0.9	?	3	5	7.4%	1.4%
COc1ccccc1CNC(=O)C1CCN(S(=O)(=O)c2ccc3c(c2)CC(C)N3C(C)=O)CC1 (configuration not stated)	-5.8	-1.1	0%	1	-10	1.2%	0.2%
Cc1nnc(SCC(=O)NCc2ccco2)n1-c1ccccc1	-1.1	-0.1	5%	2	10	-1.6%	-2.3%
CCc1oc(C(=O)O)cc1CN(CC)CC	1.9	-0.8	14%	-3	-2	-2.5%	-2.8%
CC(C)c1ccc(-c2nc(N3CCCCCC3)nc3n[nH]c(N)c23)cc1	-1.5	0.7	6%	-11	11	3.2%	0.6%
O=C(/C=C/c1ccccc1)COC(=O)c1ccccc1	/	1.2	/	/	-22	3.0%	/
O=C(NCCc1ccccc1)c1ccc2c(c1)S(=O)(=O)c1ccccc1C2=O	/	-0.4	/	/	6	1.0%	-0.2%
COc1cccc(CN(C)C(=O)c2ccc(Cl)c(S(=O)(=O)N3CCCCCC3)c2)c1OC	/	5.7	/	/	16	1.1%	-2.5%
Nc1c(N(CCC2=CCCCC2)C(=O)COc2ccc(F)cc2Cl)c(=O)[nH]c(=O)n1Cc1ccccc1	/	1.9	/	/	-2	-2.0%	-0.6%
COc1cccc(N2CC(NC(=O)/C=C\c3ccc(OC)c(OC)c3)CC2=O)c1 (configuration not stated)	/	-0.4	/	/	-12	-0.4%	3.8%
COc1ccc(-c2nc3cnccn3c2Nc2ccc(C)cc2)cc1	1.7	0.6	14%	10	26	2.1%	-13%
Cc1ccnc2nc(C(=O)OCC(=O)N(CC(C)C)CC(C)C)nn12	-1.4	-0.7	6%	-4	14	0.1%	/
COc1cc(C(=O)N2C[C@@H]3CCC[C@H]2C3)ccc1OC1CCN(C(C)=O)CC1	/	-0.2	5%	-5	13	-0.2%	-3.5%
Cc1ccccc1Cn1c(=O)n(CCC(=O)NCc2ccc3c(c2)OCO3)c(=O)c2ccccc21	4.5	0.1	-13%	11	12	-0.1%	-0.5%
N#C/C(=C(\O)CCl)c1nnc2n1CCCCC2	-0.2	0.8	-16%	9	2	3.5%	-0.5%
O=C(Nc1cccc(Cl)c1)/C(=C\c1cccnc1)NC(=O)c1ccco1	-1.0	1.5	14%	17	14	2.1%	-0.2%
CN(C)CCN(Cc1ccccc1)C(=O)C1CCN(c2ncnc3c2nc2n3CCCCC2)CC1	/	0.3	12%	-9	7	0.0%	-1.1%
COc1ccc(CCN=C(N)NS(=O)(=O)c2cc(F)ccc2OC)cc1	/	-0.6	13%	0	4	-0.7%	-2.6%
COc1cc(OC)cc(C(=O)NNC(=O)C2CCCC2)c1	-21	1.8	13%	1	5	2.5%	/
COc1ccc(C)cc1NC(=O)CN1c2ccccc2S(=O)(=O)c2ccccc21	/	0.7	/	/	17	3.6%	?
O=C(Cc1ccc(Cl)cc1)Nc1ccc(Br)cn1	5.8	3.1	-4%	-20	9	2.8%	0.4%
Cc1cc(C)c(OCCCON2C(=O)CCC2=O)c(Br)c1	-1.4	0.7	11%	-9	2	0.9%	0.6%
O=C(N/N=C/c1c(O)n(-c2ccc(Cl)cn2)c(=O)c2ccccc12)c1ccncc1	?	11	-29%	-12	0	3.3%	1.4%
NC(=Nc1ccccc1)N(c1ccccc1)c1ccccc1	/	0.0	/	/	10	2.3%	/
CCCn1c(SCC(=O)NNC(=O)c2ccccc2)nnc1-c1cccnc1	0.6	-0.1	-2%	-7	-23	-1.9%	-2.2%
CCCN1C(=O)c2cc(C(=O)Nc3cccc(C(C)=O)c3)ccc2C1Nc1cccc(C(C)=O)c1 (configuration not stated)	-1.6	1.2	7%	-1	1	0.7%	-4.4%
C=C(C)c1cccc(C(C)(C)NC(=O)Nc2ncccn2)c1	4.5	1.0	4%	-2	-4	0.0%[38.3 µM]	-1.6%
Cc1ccc(NC(=O)C2CCCCC2)cc1C	/	0.4	/	-22	0	2.5%	1.4%
N#CCOc1coc(CN2CCN(c3cccc(Cl)c3)CC2)cc1=O	/	1.3	8%	?	9	1.3%	-1.6%
COc1ccc(-c2cc(C(=O)Nc3cc(OC)cc(C(=O)Nc4cccc(C(F)(F)F)c4)c3)[nH]n2)cc1	0.8	0.3&-0.3	?	28	15&2	?	-17%&-18%
c1ccc(C2=Nn3c(nnc3-c3n[nH]c4c3CCC4)SC2)cc1	2.8	2.4	-9%	-17	9	4.7%	-0.4%
c1ccc2nc(-c3nc4ccccc4[nH]3)ccc2c1	2.4	-0.2	-3%	-10	21	9.6%	32µM*
Cc1ccc(S(=O)(=O)NCc2ccc(/C=C(/C#N)C(=O)NCc3ccccc3)o2)cc1	2.2	-0.5	10%	-2	7	-0.7%	0.6%
[N-]=[N+]=NCCN1CCN(CCc2ccccc2)CCC1=O	-1.4	-0.8	-2%	-11	5	0.6%	-5.5%
CC(C)CCCN1C(Nc2ccccc2)=NC[C@@H]1C	-1.8	0.0	11%	-9	4	-0.3%	0.8%
COc1cc(-c2cc3nc(NC4CCCCC4)ccn3n2)cc(OC)c1OC	/	-0.8	/	/	/	-1.0%	4.9%
Cc1ccc(CNC(=O)CCCN2C(=O)COc3ccc(C)cc32)cc1	/	-1.0	/	/	0	-1.0%	1.0%
CCCCCCSc1cc(-c2nc3cnccn3c2NCc2ccccc2)ccc1OC	/	1.0	/	6	42	-0.9%	?
CCCCNc1sc(S(=O)(=O)CCC)nc1S(=O)(=O)c1ccc(C)cc1	/	1.9	/	/	9	-0.7%	-0.7%
Continuation:
SMILES	Menin MLL FP FL	TRPML1 ag	Sfp PPTase inh	TRPV1 PAM	TRPML1 inh	PINK1 modulator	ClpP mod
COCCn1c(SCC(=O)N2CCCCC2)nc2c([nH]c3ccccc32)c1=O	0.4	0.3	7%	-25	-2	3.4%	4.0%
Cc1cccc(N2C(=O)C3C4CC(=O)C(c5ccccc54)C3C2=O)c1C (configuration not stated)	-2.9	2.3	-10%	14	8	-1.6%	-1.2%
CSc1nc2ncc(-c3ccsc3)c(N)n2n1	-2.2	0.9	7%	1	-8	5.9%	/
CCN(CC)CCCN1CC(=O)N2[C@@H](Cc3c([nH]c4ccccc34)C2(C)C)C1=O	-3.6	0.2	1%	7	-14	-0.6%	-2.1%

Shown in markdown: three of the compounds above.
| SMILES | Menin MLL FP FL | TRPML1 ag | Sfp PPTase inh | TRPV1 PAM | TRPML1 inh | PINK1 modulator | ClpP mod |
| --- | --- | --- | --- | --- | --- | --- | --- |
| Cc1cccc(N2C(=O)C3C4CC(=O)C(c5ccccc54)C3C2=O)c1C (configuration not stated) | -2.9 | 2.3 | -10% | 14 | 8 | -1.6% | -1.2% |
| CSc1nc2ncc(-c3ccsc3)c(N)n2n1 | -2.2 | 0.9 | 7% | 1 | -8 | 5.9% | / |
| COCCn1c(SCC(=O)N2CCCCC2)nc2c([nH]c3ccccc32)c1=O | 0.4 | 0.3 | 7% | -25 | -2 | 3.4% | 4.0% |

An unsorted share of the library. About 4.4% of those tested had a hit in this group.
